# Bioassay records (PubChem)
# Lassa entry inh = Lassa virus entry inhibition | Lassa virus pseudotype entry inhibition, cell reporter; control for the full effect not named in the record | Potency, µM (highest dose often 37.9 µM), for inactives: top-dose activity change, negative = inhibition, actives largely listed as inhibitors | hit rate 1.2% among 300,000 | AID 540256; active means well fitted inhibition curve with a large enough effect; inconclusive means small, poorly fitted or top-dose-only effect, or effect the other way; inactive means flat fitted curve, though single readings scatter; tested in HEK293 cells; further: on the % scale 0 is the no-effect control and ±100 the full control effect; nearly all actives have a fitted effect of over 50% in size; luciferase read-out
# MARV entry inh = Marburg virus entry inhibition; Marburg virus pseudotyped entry inhibition, cell reporter; control for the full effect not named in the record; about a third of the inactives were read at about 46 µM; hit rate 1.8% among 300,000; Potency, µM (series often up to 37.8 µM), without a hit: top-dose activity change, negative = inhibition, usual class: inhibitors; active = well fitted inhibition curve with a large enough effect; inconclusive = small, poorly fitted or top-dose-only effect, or effect the other way; inactive = flat fitted curve, though single readings scatter; tested in HEK293 cells; about a fifth of its hits are not listed in these tables; further: on the % scale 0 is the no-effect control and ±100 the full control effect; luciferase read-out
# RE007 growth inh = less growth of the S. pombe RE007 Vpr strain. S. pombe RE007 Vpr strain, BacTiter-Glo ATP luminescence, 24 h; control for the full effect not named in the record. Potency, µM (series often up to 92.2 µM), for inactives: top-dose activity change, negative = less growth. hit rate 0.21% among 360,000; active = well fitted falling curve with a large enough effect; inconclusive = small, poorly fitted or top-dose-only effect; inactive = no such curve, though single readings can be large or run the other way;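 further: on the % scale 0 is the no-effect control and ±100 the full control effect; nearly all actives have a fitted effect of over 50% in size; the assay follows cell death caused by Vpr and the record does not say whether a fall means rescue or toxicity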
#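 Fission yeast strain RE007, carrying one chromosomally integrated HIV-1 vpr copy, was seeded at OD 0.01 in PMG+AL medium with 23 nL pinned compound. After 24 h at 30 °C and 99% humidity, viability was read by BacTiter-Glo luminescence.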
# NS1 inh = blocks influenza NS1 protein function; S. cerevisiae slowed by influenza A NS1, growth recovery by OD600; Potency, µM (doses to about 46.1 µM), for the others: at the top dose activity, positive = more growth; hit rate 0.4% among 270,000; AID 2326; active means well fitted rising curve with a large enough effect; inconclusive means small, poorly fitted or top-dose-only effect; inactive means no such curve, though single readings can be large or run the other way; further: nearly all actives have a fitted effect of over 50% in size
#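 Growth recovery, yeast-based: influenza A NS1 expressed in S. cerevisiae causes slow growth, and suppressors are detected by OD600. The parent strain without NS1 is used as positive control.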
# SARS PLP yeast = inhibitors of SARS-CoV papain-like protease in yeast; S. cerevisiae expressing SARS-CoV PLpro, growth rescue; control for the full effect not named in the record; Potency, µM (titrated, usually from 32.9 µM), for the others: at the highest dose activity, positive = growth rescue; hit rate 0.19% among 330,000; AID 485353; active means well fitted rising curve with a large enough effect; inconclusive means small, poorly fitted or top-dose-only effect; inactive means no such curve, though single readings can be large or run the other way; further: 0% is about no effect; nearly all actives have a fitted effect of over 55% in size; growth read by luminescence after 48 h
# StopGo reporter = FMDV 2A StopGo reporter, luciferase signal; human cells with a luciferase reporter of 2A StopGo recoding; control for the full effect not named in the record; Potency, µM (top dose mostly 57.9 µM), inactives show at the highest dose signal change, negative = less light; hit rate 1.2% among 410,000; AID 1159524; active = well fitted falling curve with a large enough effect; inconclusive = small, poorly fitted or top-dose-only effect; inactive = no such curve, though single readings can be large or run the other way; tested in HEK293T cells; further: on the % scale 0 is the no-effect control and ±100 the full control effect; nearly all actives have a fitted effect of over 45% in size; luciferase light after 4 h
# Cruzain noTriton = inhibitors of Trypanosoma cruzi cruzain without detergent. purified cruzain, Z-FR-AMC fluorescence, no detergent. Potency, µM, for the others: max response, negative = inhibition, usual class: inhibitors. hit rate 2.3% among 200,000. AID 1476;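 further: plate controls were enzyme without inhibitor for no effect and buffer without enzyme for full effect; nearly all actives have a fitted effect of over 40% in size; top concentration of the series not given in the record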
# Target sequence (P25779 123-467 limits assumed): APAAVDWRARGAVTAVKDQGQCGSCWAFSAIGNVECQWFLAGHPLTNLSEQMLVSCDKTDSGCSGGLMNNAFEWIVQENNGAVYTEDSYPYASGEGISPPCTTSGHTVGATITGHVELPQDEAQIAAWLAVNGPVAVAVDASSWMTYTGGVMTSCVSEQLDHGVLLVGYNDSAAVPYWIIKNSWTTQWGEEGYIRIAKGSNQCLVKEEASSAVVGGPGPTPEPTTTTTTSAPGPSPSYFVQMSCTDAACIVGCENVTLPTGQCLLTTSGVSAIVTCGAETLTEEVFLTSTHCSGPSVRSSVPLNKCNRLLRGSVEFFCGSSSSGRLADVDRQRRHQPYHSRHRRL
#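 Purified cruzain at 1.5 nM, pre-incubated 15 min with compound at room temperature in 100 mM sodium acetate pH 5.5, 5 mM DTT, 0.00005% Triton X-100. Reaction started with 2 uM Z-FR-AMC; AMC fluorescence increase over 60 s gives rate.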
# Cruzain inh Det = inhibitors of Trypanosoma cruzi cruzain with detergent; Potency, µM, for inactives: max response, negative = inhibition, actives largely listed as inhibitors; purified cruzain, Z-FR-AMC fluorescence, 0.01% Triton; hit rate 0.43% among 200,000;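 further: plate controls were neutral wells for no effect and buffer without enzyme for full effect; nearly all actives have a fitted effect of over 40% in size; top concentration of the series not given in the record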
#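 Read-out: AMC fluorescence (360 nm excitation, 450 nm emission), four reads over 2 min, first-to-third difference used. Conditions: cruzain 1.5 nM, Z-FR-AMC 2 uM, pH 5.5 acetate, 5 mM DTT, 0.01% Triton X-100.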
# Starred values were filed as active, the others as inactive; ? = inconclusive; · = no result given; & = joins results of further samples; [ ] = dose if it differs, or a comment. Unless noted, the call rests on the fitted dose curve; in most records, active means well fitted curve in the direction sought with a large enough effect; inconclusive means small, poorly fitted or top-dose-only effect, or another doubt; inactive means no such curve, though single readings can be large; an effect the other way counts as inactive or inconclusive. Potency means the concentration at half of the fitted maximal effect.
structure	Cruzain inh Det	NS1 inh	MARV entry inh	Lassa entry inh	Cruzain noTriton	SARS PLP yeast	StopGo reporter	RE007 growth inh
COc1cccc(C2CC(C(F)(F)F)n3ncc(C(=O)NC(C)(C)C)c3N2)c1 (configuration not stated)	3.7%	2%	8%	9%	-10%	-12%	-11%	25%
O=C(NN1C(=O)c2ccccc2NC1c1ccccn1)c1ccccc1 (configuration not stated)	-0.8%	-2%	?	-3%	15%	9%	2%	1%
CC(Sc1nnc(C(F)(F)F)n1C)C(=O)NC(N)=O (configuration not stated)	2.6%	2%	15%	6%	-14%	4%	-15%	2%
Fc1ccc(-c2[nH]ncc2CN2CCN(c3ccc(F)cc3)CC2)cc1	·	-1%	?	?	·	-1%	-18%	-9%
Nc1ccccc1C(=O)NCCCN1CCOCC1	·	0%	1%	3%	·	-1%	9%	11%
Cc1ccc(NC2=Nc3ccccc3CS2)cc1	1.7%	-3%	10µM*	?	4%	0%	-28%	6%
Oc1ccccc1CNc1ccc(OC(F)(F)F)cc1	·	-6%	-9%[46.1 µM]	-2%	·	-3%	-9%	?
O=C(Cc1cccc2ccccc12)N1CC[C@@]2(O)CCCC[C@H]2C1	·	-6%	-2%[46.1 µM]	-20%	·	2%	6%	-3%
CC(=O)Nc1cccc(OCCOc2cccc([N+](=O)[O-])c2)c1	·	·	?	28%	·	·	-1%	28%
OC(c1ccccc1)c1nccn1Cc1ccccc1 (configuration not stated)	8.4%	12%	1%	14%	1%	1%	2%	-16%
CC1=NNC(=O)C1CC(=O)N/N=C(\C)c1ccco1 (configuration not stated)	·	4%	10%[46.1 µM]	2%	·	1%	-6%	-3%
COc1ccccc1-c1cc2nc(C)c(CCC(=O)NCCc3cccc(C)c3)c(C)n2n1	-16%	·	-26%[46.1 µM]	-12%[46.1 µM]	?	·	-15%	·
O=C(O)c1cccc(Cn2cc(Br)cn2)c1	3.2%	-6%	18%	0%	-13%	-8%	0%	141%
Cc1cccn2c(=O)c(/C=C(\C#N)C(=O)NC3CCS(=O)(=O)C3)c(Oc3ccc(F)cc3)nc12 (configuration not stated)	·	-19%	?	-1%[46.1 µM]	·	1%	28µM*	-23%
COC(=O)c1cc(S(=O)(=O)NCC2CCN(Cc3ccccc3F)CC2)c[nH]1	5.6%	-7%	·	·	-16%	2%	0%&-19%	-6%
COc1cc(C(=O)NC(=S)NCc2ccco2)cc(OC)c1OC	4.3%	9%	-2%	?	10%	10%	-8%	12%
Cc1nnc(SCC(=O)NC2CCCC(C)C2C)n1N (configuration not stated)	·	·	0%	7%	·	-9%	-10%	-7%
Cc1cc[n+](CC(=O)Nc2cc(C(F)(F)F)ccc2Cl)cc1	-0.7%	1%	13%	10%	-4%	4%	·	-7%
O=C(COC(=O)c1ccc[nH]c1=O)NC1CCCc2ccccc21 (configuration not stated)	·	-1%	14%[46.1 µM]	28%	·	0%	0%	-4%
O=c1[nH]c(/C=C/c2ccc(OC(F)F)cc2)nc2c1cnn2-c1ccccc1	·	3%	1%[46.1 µM]	?	·	0%	7%	-5%
CCn1ncc(Br)c1C(=O)Nc1nccs1	1.5%	1%	17%	12%	6%	2%	·	14%
Cc1ccc(NC(=O)NCC(c2ccccc2)N(C)C)cc1 (configuration not stated)	·	-3%	10%[46.1 µM]	23%[46.1 µM]	·	-2%	15%	3%
O=C(CSc1nc2ccc(NC(=O)CSc3nnnn3-c3ccccc3)cc2s1)Nc1ccccc1	-3.0%	11%	?	?	5µM*	22%	?	-3%
CCOc1ccc(CCNC(=O)CCCc2nnc3n(CCCOC)c(=O)c4sccc4n23)cc1	0.1%	·	·	7%[46.1 µM]	-6%	·	-7%	·
CN(C)/C=C/C(=O)/C=C/c1ccc(Cl)cc1	·	-38%	?	?	·	-5%	45%[activator]	-19%
Cc1c(C(=O)Nc2nnc(SCc3ccccc3Cl)s2)cccc1[N+](=O)[O-]	3.1%	5%	?	-3%	?	-3%	-11%	-9%
Cc1nc2c(Br)c3nc(C(F)(F)F)[nH]c3c(Br)c2[nH]1	-1.6%	1%	2%	-4%	-5%	-3%	-1%	-16%
Cc1ccc(CNc2ccc(S(=O)(=O)N3CCOCC3)cc2[N+](=O)[O-])cc1	-4.9%	-6%	?	-29%	14%	3%	-6%	6%
Cc1cccc(N2CCN(S(=O)(=O)c3csc(C(N)=O)c3)CC2)c1C	-9.1%	·	·	?	5%	·	?	·
CCOC(=O)c1cnn(Cc2ccccc2)c1N	0.9%	-1%	11%	-23%	-6%	?	·	-12%
C=CCn1c(O)c(C(C)=NCCO)c(=O)[nH]c1=O	2.8%	2%	-16%	2%	9%	8%	6%	0%
O=C(CSc1ncccn1)N/N=C/c1cccc([N+](=O)[O-])c1	2.0%	0%	?	?	-7%	-9%	3%	7%
O=C(NCCC1CCCCN1S(=O)(=O)c1ccc(Cl)cc1)C(=O)NCc1cccnc1 (configuration not stated)	·	·	?	-29%	·	1%	-6%	-4%
O=C(NCCc1ccccc1)c1ccc(CS(=O)Cc2cccc(Cl)c2)o1 (configuration not stated)	·	6%	-6%[46.1 µM]	2%[46.1 µM]	·	1%	-11%	-4%
COc1ccccc1NC(=O)COc1ccc(C(=O)OCC(=O)NC(C)(C)C)cc1OC	·	-29%	-6%[46.1 µM]	·	·	1%	22µM*	4%
COc1ccc(C)cc1NC(=O)Nn1cnnc1	0.8%	0%	12%	-3%	0%	-6%	-2%	19%
COc1ccc(N=Cc2c(O)c3ccccc3oc2=O)cc1	-1.7%	2%	-1%	·	1%	-19%	11%	-9%
CN(C)c1nc(SCC(=O)Nc2ccccc2)nc(N2CCOCC2)n1	·	·	1%[46.1 µM]	-2%	·	-7%	-15%	9%
CCOC(=O)c1ccc(NC(=O)CSc2nc(C)c(Cc3ccccc3)c(=O)[nH]2)cc1	-1.0%	·	0%[46.1 µM]	10%[46.1 µM]	-29%	·	-21%	·
Cc1cnc(C(=O)OCC(=O)c2ccc(-c3ccccc3)cc2)cn1	·	-5%	·	·	·	5%	-9%	11%
Cc1oc(C(C)(C)C)cc1C(=O)NC1CCN(Cc2ccccc2)CC1	·	3%	10µM*	?	·	-1%	-21%	3%
O=C(NCCc1ccccc1)C1CC1	·	1%	·	·	·	-1%	14%	14%
CCOc1ccc(NS(=O)(=O)c2ccc(NS(=O)(=O)c3ccc(SC)cc3)cc2)cc1	-4.4%	7%	-4%	56%[14.3 µM]	17%	-7%	43%[activator]	15%
CC1=CC(=O)C=C(C)C1=NOc1ccc([N+](=O)[O-])cc1	·	·	-23%[46.1 µM]	12%[46.1 µM]	·	-1%	-19%	-15%
O=S(Cc1cc(Oc2ccccc2)nc(-c2ccccc2)n1)c1ccccc1 (configuration not stated)	-5.0%	-5%	?	?	-4%	?	-15%	2%
Cn1c(NC(=O)/C=C/c2ccco2)cc(=O)n(C)c1=O	-8.6%	11%	?	?	3%	-18%	21%	-4%
COc1ccccc1/C=N/NC(=O)C(=O)N1CCN(c2ccccc2OC)CC1	-2.0%	-4%	-6%	-9%	-13%	-13%	27%	1%
CCOC(=O)C1CCN(C(=O)c2cn(C)c(=O)c3cc(OC)c(OC)cc23)CC1	-1.6%	-7%	1%	17%	2%	19%	-8%	25%
CC1Cc2ccccc2N1Cc1nc2cc(C(F)(F)F)ccc2c(=O)[nH]1 (configuration not stated)	1.3%	?	?	17%	25µM*	-5%	-21%	4%
CCC1CCCCN1S(=O)(=O)c1ccc(NC(=O)CSc2ncccc2C(=O)O)cc1 (configuration not stated)	-4.7%	10%	-9%	0%	?	5%	·	-3%
COc1ccc(OCCNC2CCCC2)cc1	-0.9%	3%	15%	0%	1%	-7%	-4%	-20%
CCCn1c(=O)c2c(C(=O)OCC)cc(-c3ccco3)nc2n(CCC)c1=O	-6.9%	3%	-11%	8%	?	-2%	-3%	9%
O=C(NCc1ccco1)C(=O)N1CCCC1	·	0%	·	·	·	0%	-5%	10%
Cc1cc(C)cc(OCC(=O)Nc2nc3c(s2)CC(C(C)(C)C)CC3)c1 (configuration not stated)	-3.6%	·	-5%[46.1 µM]	?	8%	·	-26%	·
COc1ccc(CCNC(=O)Cc2c(C)c3cc4c(C(C)(C)C)coc4c(C)c3oc2=O)cc1	-0.4%	·	-1%[46.1 µM]	?	9%	·	-3%	·
O=C(NNC(=S)Nc1ccccc1)c1ccc(O)cc1	·	3%	·	·	·	0%	84%[activator]	9%

# More compounds follow:
structure	Cruzain inh Det	NS1 inh	MARV entry inh	Lassa entry inh	Cruzain noTriton	SARS PLP yeast	StopGo reporter	RE007 growth inh
C=CCC1(Cl)C(=O)C(Cl)=C(N2CCOCC2)C1(OC)OC (configuration not stated)	·	-4%	-5%	-12%	·	2%	-6%	5%
Cn1c(CNC(=O)c2ccc(Cl)c(Cl)c2)nnc1SCC(=O)Nc1sc2c(c1C#N)CCCC2	2.3%	2%	?	-13%	?	2%	-16%	4%
O=C(Nc1ccc2c(c1)OCCO2)C1CCN(S(=O)(=O)Cc2ccccc2)CC1	-0.3%	-6%	-3%[46.1 µM]	-2%	-1%	?	-15%	8%
CC(C)(C)c1ccc(S(=O)(=O)N2CCC(c3ccncc3)CC2)cc1	0.9%	·	·	?	13%	·	?	·
OCCN1CCN(c2nc(-c3ccccc3O)nc3ccccc23)CC1	·	-1%	?	?	·	-5%	-17%	-19%
C/C(=N\NC(=O)c1ccncc1)c1c(O)n(Cc2ccccc2)c(=O)[nH]c1=O	·	11%	·	·	·	5%	-18%	-4%

# One compound at a time, from the list above. Values in the order: Cruzain inh Det	NS1 inh	MARV entry inh	Lassa entry inh	Cruzain noTriton	SARS PLP yeast	StopGo reporter	RE007 growth inh
# `CCOC(=O)c1cnn(Cc2ccccc2)c1N` in the list: 0.9%	-1%	11%	-23%	-6%	?	·	-12%
# `CC1Cc2ccccc2N1Cc1nc2cc(C(F)(F)F)ccc2c(=O)[nH]1` (configuration not stated) in the list: 1.3%	?	?	17%	25µM*	-5%	-21%	4%
